From PubChem
A1 inh: caspase 3/7 activation in MEF A1-2A-BIM cells, primary screen, A1 inhibitor project, cell-based, luminescence, HTS; caspase activation, % (no concentration beside the values); 330,000 tested, 0.066% active; Caspase-Glo 3/7 luminescence, 3 h; percent of clofoctol response, vehicle zero;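 active = over half of replicate activation scores above 10%, or exactly half above 10 with the replicate mean above 10; inconclusive = replicate mean below 10 yet half the replicates above 10; inactive = over half of replicates below 10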;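 also: wells of about 30 µL received 50 nL stock; many hits fall short of the cut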
T cruzi inh: inhibitors of intracellular T. cruzi growth, primary screen, luminescence, NIH3T3 host cells; T. cruzi beta-gal in NIH3T3, 90 h; inhibition, % (concentration not given with the values); 300,000 tested, 1.4% active;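 active = mean inhibition across valid replicates above about 55%, limit read from the data; inconclusive = mean below that limit but half or more replicates reach it; inactive = mean below it, under half of replicates reach it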;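 also: signal also drops with host cell toxicity which is not excluded here; 0% = plate median of DMSO wells and 100% = zero luminescence signal; higher percent means less beta-gal luminescence so fewer parasites; stock transfer was 50 nL into about 50 µL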
ALR H2O2 inh: inhibitors of human ALR sulfhydryl oxidase, primary screen, biochemical, H2O2 detection, HRP-luminol luminescence, single point. FAD-linked sulfhydryl oxidase ALR (Homo sapiens), P55789. purified ALR, DTT oxidation. inhibition, % (test concentration not listed). 290,000 tested, 3.8% active. AID 485317, 2010;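 active = mean and each replicate at 75% or more; inconclusive = only one of the two met; inactive = neither met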;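 also: stock transfer was 7.5 nL into about 7.5 µL; 0% = neutral wells and 100% = wells with inactivated enzyme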
Target sequence (P55789 whole entry, looked up): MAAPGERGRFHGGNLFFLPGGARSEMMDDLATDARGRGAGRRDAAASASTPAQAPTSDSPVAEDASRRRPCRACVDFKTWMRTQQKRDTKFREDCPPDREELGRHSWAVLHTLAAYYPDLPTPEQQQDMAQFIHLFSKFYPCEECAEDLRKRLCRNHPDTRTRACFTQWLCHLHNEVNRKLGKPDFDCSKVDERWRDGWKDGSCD
Calb FLC: C. albicans growth inhibition with fluconazole, primary screen, CaCi-2 strain, Alamar Blue fluorescence; AID 1979, 2009; 300,000 tested, 0.57% active; C. albicans CaCi-2 (fluconazole-resistant clinical isolate) + fluconazole, 48 h; growth inhibition, % (concentration not given with the values);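 active = most replicates above 75%; inconclusive = exactly half above 75%; inactive = most below 75%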;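 also: all wells also contain fluconazole at 8 µg/ml as a sub-toxic cotreatment; 0% = median of DMSO wells and 100% = median of geldanamycin control wells; wells of about 8 µL received 7.5 nL stock; the first replicate is given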
LANA-H2B inh: blockers of LANA interaction with H2A/H2B – biochemical, FP readout, HTS, primary screen. cell-free LANA-H2A/H2B peptide, fluorescence polarization. inhibition, % (test concentration not listed). 320,000 tested, 0.6% active. AID 2629, 2010; in the data active = inhibition mostly above about 10%, no sharp cut-off; inactive = mostly below about 6.7%;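 also: stock transfer was 7.5 nL into about 10 µL; 0% = median of vehicle wells and 100% = median of positive control wells; one replicate is shown; the record names a cut of 25% in any replicate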
Ecoli rRNA inh: reduced GFP signal of wild-type E. coli, primary screen, bacterial rRNA inhibitor project, GFP/RFP fluorescence, OD600, single point. E. coli WT GFP vs humanized-ribosome RFP mutants, 24 h; hits give low values; DMSO median 0, no signal -100. GFP signal change (wild-type ribosome), % (test concentration not listed). 350,000 tested, 1.6% active;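 active = significant combined selectivity score with lowered wild-type GFP, culture density cut under 30%, mutant RFP and density less affected; inactive = any of these conditions unmet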; also: one replicate is shown; some compounds called inactive have numbers as strong as hits
Beta apoptosis: inhibitors of cytokine-induced beta cell apoptosis, primary screen, luminescence; protection from apoptosis, % (no concentration beside the values); INS-1E cytokine-induced death, ATP luminescence, 48 h; percent of positive-control rescue, neutral wells zero; 300,000 tested, 0.8% active;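 active = all replicates at 75% or more, or half of them and the mean; inconclusive = half reach 75% but not the mean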;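 also: 0% = cytokine-treated negative control wells and 100% = positive control rescue; higher means more ATP so stronger rescue from cytokine killing; wells of about 40 µL received 100 nL stock; the first replicate is given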
B2AR ag: beta2AR agonists driving receptor internalization, primary screen, cell-based, FAP fluorogen, flow cytometry | Beta-2 adrenergic receptor (Homo sapiens), P07550 | Am2.2-beta2AR cells; reference of the scale not given here | response, % (no concentration beside the values) | 340,000 tested, 0.43% active;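 active = response above a set limit, near 3 SD of response in nonfluorescent compounds, cut at about 42% in these data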;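 also: stock transfer was 100 nL into about 11 µL; a reference agonist was the positive control; negative values mostly stem from fluorescent compounds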
Target sequence (P07550 whole entry, looked up): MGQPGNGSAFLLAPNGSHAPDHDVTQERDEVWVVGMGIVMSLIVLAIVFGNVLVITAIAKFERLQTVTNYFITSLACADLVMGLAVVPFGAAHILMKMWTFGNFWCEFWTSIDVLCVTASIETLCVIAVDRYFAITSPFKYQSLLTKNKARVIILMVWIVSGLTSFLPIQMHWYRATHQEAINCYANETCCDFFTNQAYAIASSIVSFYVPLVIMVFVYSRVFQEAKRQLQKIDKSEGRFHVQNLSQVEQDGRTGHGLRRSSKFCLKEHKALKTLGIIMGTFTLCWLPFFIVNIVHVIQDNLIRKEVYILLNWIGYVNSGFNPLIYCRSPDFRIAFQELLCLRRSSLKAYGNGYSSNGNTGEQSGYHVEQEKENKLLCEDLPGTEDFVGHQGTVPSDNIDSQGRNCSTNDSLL
Ecoli rRNA inh OD600: second read-out of Ecoli rRNA inh, no call of its own (marks repeat the call); OD600 change, %; measured here: OD600 growth;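 optical density of the mix in the first replicate; 0 = DMSO median and -100 = no signal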
Ecoli rRNA inh RFP: recorded beside Ecoli rRNA inh, whose call it bears; RFP signal change, %; measured here: RFP humanized mutant strains;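 first replicate; 0 = DMSO median and -100 = no signal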
* marks the source's active call; other numbers are inactive results; ? = inconclusive; · = no result given.

SMILES	A1 inh	T cruzi inh	ALR H2O2 inh	Calb FLC	LANA-H2B inh	Ecoli rRNA inh	Ecoli rRNA inh OD600	Ecoli rRNA inh RFP	Beta apoptosis	B2AR ag
Cc1ccc(S(=O)(=O)Nc2ccccc2C(=O)OC(C)C(=O)Nc2ccc3ccccc3c2)cc1[N+](=O)[O-] (configuration not stated)	0.7	-9	0	-16	3.5	·	·	·	9	4
O=C(CN1C(=O)C2C3CC(C(Br)C3Br)C2C1=O)OCC(=O)c1cccc([N+](=O)[O-])c1 (configuration not stated)	?	-5	3	6	1.5	23	20	-0.9	-7	-4
Cc1cccc2c(=O)cc(C)n(CC(=O)N3CCCCC3)c12	-1.8	4	-8	7	-1.7	·	·	·	-2	-1
CCCC(=O)Nc1nnc(CC(=O)N2CCCC2)s1	0.8	0	-2	-2	-1.1	·	·	·	1	-5
Cc1cc(NC(=O)CN2C(=O)NC3(CCCCCC3)C2=O)no1	0.4	-10	-1	-7	20	-1	-2	-1.6	-1	4
O=C(Cc1ccccc1)NCC(=O)N/N=C/c1cccnc1	-0.2	5	0	0	2.2	8	9	0.3	-1	8
O=C(NNc1cc(N2CCOCC2)nc(N2CCOCC2)n1)c1ccc([N+](=O)[O-])cc1	·	-6	·	?	·	24	13	20	·	13
COc1ccc(-c2cc(C(=O)Nc3c(C)n(C)n(-c4ccccc4)c3=O)no2)cc1OC	0.2	18	3	-3	4.3	-1	-9	-2.7	-1	10
O=C(NCCS(=O)CCNC(=O)C(F)(F)F)C(F)(F)F	0.6	-22	-8	-2	-9.0	·	·	·	0	-5
Nc1ccccc1C(=O)NCC1(c2ccccc2)CCCC1	-0.6	3	-6	5	-1.4	-14	-19	5.0	1	2
O=C(c1ccc(-c2ccccc2)cc1)c1ccc([N+](=O)[O-])cc1	-1.0	20	-5	-7	2.9	·	·	·	1	·
Cc1ccccc1N1CCN(Cc2ccc(Br)o2)CC1	-0.3	9	47	-81	-1.2	-27*	-17*	-1.0*	0	0
CC(Cc1ccccc1)Nc1ncnc2c1ncn2C1OC(CO)C(O)C1O (configuration not stated)	-0.7	-7	1	-8	-3.3	·	·	·	·	-2
CCc1ccc(NC(=O)CC2S/C(=N/N=C3CCCCCC3)NC2=O)cc1 (configuration not stated)	·	-17	·	-7	·	-14	-31	-3.3	·	14
O=C1CC(c2ccc(S(=O)(=O)NCc3ccncc3)cc2)CN1 (configuration not stated)	0.6	-14	-3	2	6.1	12	15	-0.1	-3	1
O=C(NCC(c1cccnc1)N1CCN(c2ccccc2F)CC1)C1CCCCC1 (configuration not stated)	·	-13	3	5	2.2	·	·	·	3	-2
CC(C)(C)c1nc2c(Br)cc(Br)cc2c(=O)o1	0.0	-7	-6	11	-2.2	·	·	·	2	-3
CCOc1ccc(N=Nc2c(=O)[nH]n3c(=O)cc(C)[nH]c23)cc1	-0.4	11	58	-13	4.8	·	·	·	37	12
CCCN(CCC)CCCNC(=O)CC1Nc2ccccc2NC1=O (configuration not stated)	0.4	-4	0	-7	0.9	·	·	·	-2	9
CSc1ccccc1-c1n[nH]c(=S)o1	·	1	·	8	·	-2	-5	2.2	·	2
CCC(C)NC(=O)c1nc2c(nnn2Cc2ccccc2Cl)c(=O)[nH]1 (configuration not stated)	-0.7	12	88*	26	-0.7	-20	-19	3.9	2	5
CCCNC(=O)c1c[nH]c2ccc(S(=O)(=O)N(C)c3ccc(OCC)cc3)cc2c1=O	-0.9	11	-26	-10	-12	·	·	·	41	·
CCOc1ccc2c(c1)c1nc3ccccc3nc1n2C	-0.6	8	-3	0	39*	5	12	8.5	9	-2
COc1cccc(S(=O)(=O)NCc2ccc(C(=O)N3CCN(C)CC3)cc2)c1	·	4	·	-5	·	8	5	0.8	·	14
CCOC(=O)C1CCC(CN(Cc2ccccc2C)S(=O)(=O)c2ccc([N+](=O)[O-])cc2)CC1 (configuration not stated)	0.7	37	-5	6	-1.7	·	·	·	-1	-2
O=c1[nH]c(=S)[nH]c2sc3c(c12)CCCCCC3	1.0	4	27	-6	-1.8	-25	-26	-7.1	-1	7
COc1ccccc1N/C(N)=N/c1nc(CSc2ccc(C)cc2)cc(=O)[nH]1	0.5	3	-3	-2	3.5	·	·	·	44	2
COc1cc(OC)c(NS(=O)(=O)c2cc3[nH]c(=O)c(=O)[nH]c3cc2C)cc1Cl	-0.4	-1	7	8	3.3	21	13	7.1	-2	-5
CC(C)CC(=O)Nc1nnn(C)n1	-0.1	-18	2	-15	-4.2	·	·	·	-6	-6
CCOC(=O)c1sc2nc(C)nc(Nc3ccc(OC)c(OC)c3)c2c1C	-0.6	29	-10	26	1.8	-1	7	-1.4	·	0
Cn1nnc2cc(C(=O)NCCC3=CCCCC3)ccc21	1.5	-2	-9	23	1.1	·	·	·	-1	-21
CC(C)CC(=O)N(c1ccc(F)cc1)C1C=CS(=O)(=O)C1 (configuration not stated)	0.1	-6	-1	13	1.9	14	5	-0.1	-12	3
CCc1cccc2c(C#N)cn(CC(=O)NCCOC)c12	0.1	-13	-9	-7	3.5	·	·	·	-8	2
O=C(CN1C(=O)C2CC=CCC2C1=O)OCC(=O)c1ccc(Cl)c([N+](=O)[O-])c1 (configuration not stated)	0.8	1	-1	5	-2.0	13	14	-2.1	·	7
CN1CCN(c2nc(-c3ccccc3)ncc2S(=O)(=O)c2ccccc2)CC1	1.2	19	0	-44	4.7	-21	-19	-6.2	3	4
Cc1ccc(CSCC(=O)N2CCN(Cc3ccc4c(c3)OCO4)CC2)cc1	-0.2	-2	2	2	-7.6	·	·	·	1	15
CCOc1ccc(CNC(=O)C2CCCN(S(=O)(=O)N3CC(C)CC(C)C3)C2)cc1OC (configuration not stated)	-0.2	11	-1	0	8.6	0	-7	1.6	2	-6
CCC(=O)Nc1ccccc1Sc1ncnc2scc(-c3ccccc3)c12	-0.3	4	-13	11	2.1	-17	-11	1.5	2	-7
CC(=O)NC1=NN(C(C)=O)C(c2cccs2)S1 (configuration not stated)	0.8	-4	·	1	8.7	·	·	·	1	-3
Cc1nc2oc3c(NCc4ccccn4)ncnc3c2c2c1COC(C)(C)C2	-0.5	9	-5	-2	-3.5	·	·	·	4	-13
CCN(CC)S(=O)(=O)c1ccc(N2CCCC2)c(NC(=O)Cc2c(F)cccc2Cl)c1	-0.2	18	-2	-15	-2.4	2	6	1.4	-3	0
Nc1ccc(C(=O)Nc2ccc3nc(-c4ccncc4)[nH]c3c2)cc1	0.9	-10	-18	-13	-3.2	-33*	-14*	-14*	8	2
O=C(/C=C/c1ccc(N2CCCCC2)c([N+](=O)[O-])c1)c1ccc(S(=O)(=O)N2CCCC2)cc1	0.0	40	·	-8	-2.5	·	·	·	3	2
CCOC(=O)N1CCN(C(=O)CN(C)S(=O)(=O)c2ccc(OC)c(OC)c2)CC1	-0.1	·	·	22	4.1	·	·	·	·	1
COCC(C)n1c(SCc2nc(N)nc(Nc3ccccc3C)n2)nc2ccccc2c1=O (configuration not stated)	0.0	-2	-1	2	-5.5	·	·	·	3	2
N#CC1CC(c2ccccc2)Nc2cc(Cl)ccc2N1 (configuration not stated)	-0.7	-44	·	7	3.9	-48	-67	-10	-4	-2
Cc1ccc(S(=O)(=O)N2CCOCC2)c2nsnc12	0.4	-30	-28	?	-1.4	·	·	·	-2	-1
CC1CCCN(S(=O)(=O)c2ccc3[nH]c4c(c3c2)CCCC4)C1 (configuration not stated)	0.3	-1	3	-9	-2.3	-17	-48	-1.4	-2	1

Part of the list above in a different format.
Sequence of screens: A1 inh	T cruzi inh	ALR H2O2 inh	Calb FLC	LANA-H2B inh	Ecoli rRNA inh	Ecoli rRNA inh OD600	Ecoli rRNA inh RFP	Beta apoptosis	B2AR ag
- COc1ccc(-c2cc(C(=O)Nc3c(C)n(C)n(-c4ccccc4)c3=O)no2)cc1OC
 : 0.2	18	3	-3	4.3	-1	-9	-2.7	-1	10
- O=C(NCCS(=O)CCNC(=O)C(F)(F)F)C(F)(F)F
 : 0.6	-22	-8	-2	-9.0	·	·	·	0	-5
- Nc1ccccc1C(=O)NCC1(c2ccccc2)CCCC1
 : -0.6	3	-6	5	-1.4	-14	-19	5.0	1	2
- O=C(c1ccc(-c2ccccc2)cc1)c1ccc([N+](=O)[O-])cc1
 : -1.0	20	-5	-7	2.9	·	·	·	1	·
- Cc1ccccc1N1CCN(Cc2ccc(Br)o2)CC1
 : -0.3	9	47	-81	-1.2	-27*	-17*	-1.0*	0	0
- CC(Cc1ccccc1)Nc1ncnc2c1ncn2C1OC(CO)C(O)C1O (configuration not stated)
 : -0.7	-7	1	-8	-3.3	·	·	·	·	-2

Records listed above printed as active in ALR H2O2 inh:
canonical_smiles | A1 inh | ALR H2O2 inh | LANA-H2B inh | Ecoli rRNA inh | Ecoli rRNA inh OD600 | Ecoli rRNA inh RFP | B2AR ag
CCC(C)NC(=O)c1nc2c(nnn2Cc2ccccc2Cl)c(=O)[nH]1 (configuration not stated) | -0.7 | 88* | -0.7 | -20 | -19 | 3.9 | 5

The list continues:
SMILES	A1 inh	T cruzi inh	ALR H2O2 inh	Calb FLC	LANA-H2B inh	Ecoli rRNA inh	Ecoli rRNA inh OD600	Ecoli rRNA inh RFP	Beta apoptosis	B2AR ag
O=C(COc1ccc2ccccc2c1Br)N1CCCCC1	-4.0	26	-75	-8	1.8	·	·	·	·	-8
O=C(Cc1n[nH]c(=O)c2ccccc12)N/N=C/c1cc2c(cc1Cl)OCO2	0.8	-3	1	-5	-15	1	-2	0.7	9	2
CSc1ccc2[nH]c(=O)cc(C)c2c1	0.0	-6	100*	8	6.3	·	·	·	0	-3
COc1cc(CNC2CCCCCC2)cc(OC)c1O	0.2	-17	1	2	-3.4	·	·	·	·	0
Cc1cc(=O)oc2cc(NC(=O)Cc3ccccc3)ccc12	-0.5	11	-11	-1	9.1	1	16	3.7	6	-3
Cc1ccc(OCc2nc3ccccc3[nH]2)cc1	-5.2	-6	-7	1	1.1	-7	-15	-4.7	6	-5
CCCOc1ccc(C(CC(=O)O)NC(=O)c2cccs2)cc1 (configuration not stated)	0.1	-5	7	-10	-2.6	·	·	·	-3	-5
O=C(OC(C(=O)Nc1cccc(C(F)(F)F)c1)c1ccccc1)C1CCCCC1 (configuration not stated)	1.6	·	-1	·	7.8	·	·	·	-5	-3

A portion of the library; rates above refer to the full screens.
